RanGTP-Imp inh: inhibitors of RanGTP-importin-beta interaction, primary screen, biochemical, FRET, CFP-Ran, YFP-importin-beta, homogeneous; actives 1.1% (n = 300,000); inhibition, % (test concentration not listed); Ran GTPase (GTP-bound) - importin-beta complex; AID 2216, 2009; cell-free CFP-Ran/YFP-importin-beta FRET ratio;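 active means most replicates above 15%; inconclusive means exactly half above 15%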;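 further: 0% = DMSO wells and 100% = Ran loaded with GDP instead of GTP; wells of about 40 µL received 100 nL stock; the first replicate is given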
MLL AF4-AF9 inh: inhibitors of AF4 peptide binding to AF9, primary screen, biochemical, AlphaScreen, biotin-AF4 peptide, FLAG-AF9, single point | Protein AF-9 (Homo sapiens), P42568 | inhibition, % at 10 µM | actives 0.47% (n = 350,000) | AID 651704, 2012;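 active means every replicate reaching a set inhibition limit, whatever the replicate mean, cut at about 25% in these data; inconclusive means mean inhibition reaches that limit but some replicates miss it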;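 further: 0% = plate neutral control median and 100% = total signal loss; the record names both 10 and 1 µM as test concentration; the first replicate is given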
Target sequence (P42568 whole entry, looked up): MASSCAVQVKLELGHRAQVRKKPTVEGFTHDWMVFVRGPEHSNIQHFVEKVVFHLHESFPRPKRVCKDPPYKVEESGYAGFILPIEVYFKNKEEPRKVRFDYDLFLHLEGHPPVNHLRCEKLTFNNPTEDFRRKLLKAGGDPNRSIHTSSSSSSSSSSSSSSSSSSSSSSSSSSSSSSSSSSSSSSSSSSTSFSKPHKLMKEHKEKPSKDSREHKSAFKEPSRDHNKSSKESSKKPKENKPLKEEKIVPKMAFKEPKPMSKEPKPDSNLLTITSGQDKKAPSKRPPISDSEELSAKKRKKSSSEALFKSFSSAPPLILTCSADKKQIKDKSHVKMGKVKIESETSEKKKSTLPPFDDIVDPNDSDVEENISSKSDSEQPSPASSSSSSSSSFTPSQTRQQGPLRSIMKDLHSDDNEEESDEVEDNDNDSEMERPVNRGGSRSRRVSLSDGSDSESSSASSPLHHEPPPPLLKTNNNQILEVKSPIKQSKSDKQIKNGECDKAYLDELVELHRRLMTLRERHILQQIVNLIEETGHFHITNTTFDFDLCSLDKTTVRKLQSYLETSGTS
T cruzi inh: inhibitors of intracellular T. cruzi growth, primary screen, luminescence, NIH3T3 host cells; T. cruzi beta-gal in NIH3T3, 90 h; inhibition, % (test concentration not listed); actives 1.4% (n = 300,000); AID 1885, 2009;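 active means mean inhibition across valid replicates above about 55%, limit read from the data; inconclusive means mean below that limit but half or more replicates reach it; inactive means mean below it, under half of replicates reach it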;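 further: signal also drops with host cell toxicity which is not excluded here; 0% = plate median of DMSO wells and 100% = zero luminescence signal; higher percent means less beta-gal luminescence so fewer parasites; stock transfer was 50 nL into about 50 µL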
Calb FLC: C. albicans growth inhibition with fluconazole, primary screen, CaCi-2 strain, Alamar Blue fluorescence | C. albicans CaCi-2 (fluconazole-resistant clinical isolate) + fluconazole, 48 h | growth inhibition, % (concentration not given with the values) | actives 0.57% (n = 300,000) | AID 1979, 2009;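 active means most replicates above 75%; inconclusive means exactly half above 75%; inactive means most below 75%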;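 further: all wells also contain fluconazole at 8 µg/ml as a sub-toxic cotreatment; 0% = median of DMSO wells and 100% = median of geldanamycin control wells; wells of about 8 µL received 7.5 nL stock; the first replicate is given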
Vif TR-FRET: inhibitors of Vif binding to APOBEC3G peptide, primary screen, biochemical, TR-FRET, GST-Vif 1-94, biotin-A3G peptide, dose response retest (AID 1117319). Virion infectivity factor (Human immunodeficiency virus type 1 group M subtype B (isolate …. TR-FRET GST-Vif / biotin-A3G peptide binding; higher % means a stronger effect; test concentration not given here; strong numbers were not always called active. one-dose inhibition, %; IC50 in µM for titrated hits. actives 0.57% (n = 260,000);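 active means above the screen mean plus three standard deviations and confirmed in dose response; inconclusive means results disagree or hit not tested in dose response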;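 further: Vif residues 1-94 fused to GST binding biotinylated APOBEC3G peptide 110-148; 0% = full assay without inhibitor and 100% = GST in place of GST-Vif; retest series ran down from 100 µM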
Beta apoptosis: inhibitors of cytokine-induced beta cell apoptosis, primary screen, luminescence; protection from apoptosis, % (no concentration beside the values); AID 435005, 2010; INS-1E cytokine-induced death, ATP luminescence, 48 h; percent of positive-control rescue, neutral wells zero; actives 0.8% (n = 300,000);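 active means all replicates at 75% or more, or half of them and the mean; inconclusive means half reach 75% but not the mean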;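 further: 0% = cytokine-treated negative control wells and 100% = positive control rescue; higher means more ATP so stronger rescue from cytokine killing; wells of about 40 µL received 100 nL stock; the first replicate is given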
Ecoli rRNA inh: reduced GFP signal of wild-type E. coli, primary screen, bacterial rRNA inhibitor project, GFP/RFP fluorescence, OD600, single point; actives 1.6% (n = 350,000); E. coli WT GFP vs humanized-ribosome RFP mutants, 24 h; hits give low values; DMSO median 0, no signal -100; AID 720706, 2013; GFP signal change (wild-type ribosome), % (concentration not given with the values);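 active means significant combined selectivity score with lowered wild-type GFP, culture density cut under 30%, mutant RFP and density less affected; inactive means any of these conditions unmet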; further: one replicate is shown; some compounds called inactive have numbers as strong as hits
A1 inh: caspase 3/7 activation in MEF A1-2A-BIM cells, primary screen, A1 inhibitor project, cell-based, luminescence, HTS; AID 2462, 2010; Caspase-Glo 3/7 luminescence, 3 h; percent of clofoctol response, vehicle zero; caspase activation, % (test concentration not listed); actives 0.066% (n = 330,000);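 active means over half of replicate activation scores above 10%, or exactly half above 10 with the replicate mean above 10; inconclusive means replicate mean below 10 yet half the replicates above 10; inactive means over half of replicates below 10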;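 further: wells of about 30 µL received 50 nL stock; many hits fall short of the cut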
Ecoli rRNA inh OD600: recorded beside Ecoli rRNA inh, whose call it bears; OD600 change, %; measured here: OD600 growth;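 optical density of the mix in the first replicate; 0 = DMSO median and -100 = no signal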
Ecoli rRNA inh RFP: second read-out of Ecoli rRNA inh, no call of its own (marks repeat the call); RFP signal change, %; measured here: RFP humanized mutant strains;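 first replicate; 0 = DMSO median and -100 = no signal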
An asterisk follows results filed as active; ? = inconclusive; . = no result given; & = joins results of further samples. Not all compounds are listed; count on the stated rates, not on these rows.

Fields: RanGTP-Imp inh, MLL AF4-AF9 inh, T cruzi inh, Calb FLC, Vif TR-FRET, Beta apoptosis, Ecoli rRNA inh, Ecoli rRNA inh OD600, Ecoli rRNA inh RFP, A1 inh
#1 O=C(NNc1cccc(Cl)n1)c1ccc(Cl)nc1
→ 4.1, 0.4, -16, ?, 25%, -9, 7, 14, 1.1, -0.3
#2 CCCCN(CCCC)/C(N)=N/c1nc(C)cc(C)n1
→ -1.3, -1.6, -19, -14, ?, 8, 8, 3, 0.3, 1.4
#3 C=CCOc1c(Cl)cc(C2NC(=O)NC(C)=C2C(=O)OC)cc1Cl (centres undefined)
→ 6.6, -2.1, -5, 29, 0%, -2, 0, -5, -0.7, 0.1
#4 C[C@H]1CN=C(Nc2ccccc2)N1CCCC1CCCCC1
→ 1.9, 5.0, 18, -26, ., 22, -8, -25, 4.4, 1.1
#5 CCCCCCn1c(SCCC)nc2c1c(=O)[nH]c(=O)n2C
→ 2.9, ., -10, 2, 12%, 6, ., ., ., -1.3
#6 CC1(C2CC2)NC(=O)N(CC(=O)Nc2ccc(F)cc2F)C1=O (centres undefined)
→ ., -0.5, ., ., -3%, 3, 3, 6, -1.7, -0.4
#7 CCn1cc(CNCc2cn(-c3ccccc3C)nc2-c2ccc(OC)c(F)c2)cn1
→ -4.8, 2.2, 0, -14, ., -3, ., ., ., 0.3
#8 CCOc1ccc(C(=O)Nc2ccccc2N2CCOCC2)cc1
→ -2.1, ., 15, -2, -10%, 2, ., ., ., 0.6
#9 N=c1c(C(=O)NCC2CCCO2)cc2c(=O)n3ccccc3nc2n1Cc1cccnc1 (centres undefined)
→ 182*, ., -2, 3, -2%, 0, ., ., ., -0.7
#10 O=C(NCc1nnc2c3ccccc3c(-c3ccccc3)nn12)c1ccc(Cl)cc1
→ 8.8, -2.6, 34, 39, 9%, -1, -26, -40, -2.4, 0.3
#11 Cc1ccc(CSc2ccc(S(=O)(=O)N3CCOCC3)cn2)cc1
→ ., 0.8, ., ., -6%, -3, ., ., ., -0.2
#12 CCOc1ccc(NC(=O)CN(C)C(=O)CCSc2ccc(F)cc2)cc1OCC
→ ., -0.7, ., ., -9%, 3, -2, 6, 2.1, -1.0
#13 O=C(CSc1nc(-c2ccco2)cc(C(F)(F)F)n1)N1CCN(c2cccc(Cl)c2)CC1
→ 1.5, ., 22, 5, -6%, 3, ., ., ., -0.3
#14 Cc1ccc2cc(C3CC(c4ccco4)=NN3C(=O)CCC(=O)O)c(Cl)nc2c1 (centres undefined)
→ -0.5, ., -8, 16, 14%, -2, ., ., ., 1.1
#15 CN1C(C)(C)c2ccccc2OS1(=O)=O
→ 3.8, 1.1, -5, -4, ., ., 17, 9, 0.4, 0.1

Further records:
Fields: RanGTP-Imp inh, MLL AF4-AF9 inh, T cruzi inh, Calb FLC, Vif TR-FRET, Beta apoptosis, Ecoli rRNA inh, Ecoli rRNA inh OD600, Ecoli rRNA inh RFP, A1 inh
#16 COC(=O)C(CSCc1ccccc1)NC(=O)CSc1nc(N)cc(=O)[nH]1 (centres undefined)
→ -5.1, -2.0, -6, -1, -3%, ., 15, 10, 2.3, 1.0
#17 Cc1ccccc1NC(=O)CCN1CCN(C)CC1
→ 8.1, 2.7, -2, 23, ., -12, 10, 1, -3.8, 1.1
#18 O=C(CN1CCOCC1)NCc1ccc(F)cc1
→ 1.8, 0.4, -16, 3, -10%, ., 8, 18, -1.7, 1.2
#19 COc1ccc(/C=N/NC(=O)c2ccc(COc3cccc4cccnc34)cc2)cc1OC
→ -3.4, 1.0, -3, 3, -7%, -2, 8, 14, 3.4, -0.3
#20 CCC(C)(C(=O)NC1CCCCC1)N(C(=O)c1cnccn1)c1c(C)n(C)n(-c2ccccc2)c1=O (centres undefined)
→ -1.2, ., -8, -10, 25%&-2%, -2, ., ., ., 0.3
#21 COc1cccc(C(=O)N2CCN(C(=O)C3CC3)CC2)c1
→ -1.9, 2.3, -2, 14, -1%, ., 2, 6, 0.7, .
#22 O=C(CSc1ccc(-c2ccccc2)nn1)NCC1CCCO1 (centres undefined)
→ 1.6, 2.5, -10, -3, 2%, -4, -3, 6, -1.0, 0.4
#23 CC(C)Cn1c(N)c(C(=O)COC(=O)c2ccc3ccccc3n2)c(=O)n(C)c1=O
→ 8.8, ., -10, 16, -3%, 0, ., ., ., 1.0
#24 NC(=O)NCc1ccc(Cl)cc1
→ 10.0, ., -8, -16, -1%, -6, ., ., ., -0.8
#25 CC1CC(C)CN(S(=O)(=O)c2ccc(NN)nc2)C1 (centres undefined)
→ -0.5, -13, 6, 2, -5%, 4, 6, 11, -7.1, 0.0
#26 CCOC(=O)c1nnn(-c2nonc2N)c1-c1cccs1
→ 4.0, ., 7, -7, 3%, 1, ., ., ., 0.4
#27 CCCn1nnnc1NCc1cccn1C
→ 0.2, ., -19, -4, 10%, -2, ., ., ., -1.1
#28 Cc1ccc(C)c(NC(=O)c2cnccn2)c1
→ 0.4, -0.7, -2, 4, ., -9, -10, 0, -5.6, 1.0
#29 CCNS(=O)(=O)c1ccc(NC(=O)c2cc(C(F)(F)F)nn2C)cc1
→ ?, ., 2, -4, 2%, 0, ., ., ., 0.5
#30 CC(c1nccs1)N(C)C(=O)c1cn(Cc2cccc3ccccc23)nn1 (centres undefined)
→ -0.1, -15, 9, 0, ., -4, -5, -11, 0.1, -1.6

(next part)
Fields: RanGTP-Imp inh, MLL AF4-AF9 inh, T cruzi inh, Calb FLC, Vif TR-FRET, Beta apoptosis, Ecoli rRNA inh, Ecoli rRNA inh OD600, Ecoli rRNA inh RFP, A1 inh
#31 CC(C)Cc1nnc(NC(=O)CCN2C(=O)c3ccccc3C2=O)s1
→ 6.5, -3.7, -13, -5, 3%, -3, 3, 6, 1.7, 0.8
#32 O=C1N/C(=N\c2ccccn2)SC1Cc1ccc(Cl)cc1 (centres undefined)
→ 5.2, 8.6, -2, -4, -15%, 13, 9, -5, -2.9, -0.4
#33 O=C(C1CCN(S(=O)(=O)c2ccc(Br)s2)CC1)N1CCN(C2CCCCC2)CC1
→ 0.1, 3.3, 28, 9, -3%, 0, -2, -11, 4.7, 0.1
#34 Cc1nc(NC(=O)CSc2nnc3ccccn23)c(Cl)cc1Cl
→ -0.3, ., -1, 0, 4%, -1, ., ., ., -0.7
#35 O=C1CC(c2ccccc2)C(=O)N1c1cccc(O)c1 (centres undefined)
→ -0.7, ., -14, 14, -4%, -5, ., ., ., 1.0
#36 Cc1cc(-n2cnc3c(=O)[nH]cnc32)ccc1N
→ 4.2, -0.3, -7, 5, 0%, 0, 13, 21, 3.4, -0.2
#37 CC(C)(C)NC(=O)NC(=O)COC(=O)CCCc1c[nH]c2ccccc12
→ 1.5, ., -4, -7, 11%, 2, ., ., ., -0.9
#38 N#Cc1c(NC(=O)Cn2nc(C(F)(F)F)c3c2CCCC3)sc2c1CCC2
→ 4.1, ., 1, 8, 2%, 14, ., ., ., 0.3
#39 CC(=O)Nc1c(O)nc(SCC(=O)N2CCN(c3ccc(F)cc3)CC2)[nH]c1=O
→ 2.5, ., 2, -9, 24%, 4, ., ., ., -0.2
#40 CN1C(=O)CC(c2ccccc2)CC1=O
→ 0.4, -3.1, -4, -3, ., -12, 7, 28, -1.5, 1.3
#41 CCOC(=O)C1=C(COc2ccccc2)NC(=O)NC1c1ccc(Cl)cc1 (centres undefined)
→ 0.5, -6.9, 20, 14, ., 6, -2, 0, -2.1, -0.4
#42 CC(C)OC(=O)CSc1nc2cccnc2n1C1CCCCC1
→ ?, ., 12, -1, 5%, 1, ., ., ., -0.4
#43 Cc1cc(C)c2c(C)c(C(=O)Nc3c(C)n(C)n(-c4ccccc4)c3=O)oc2c1
→ -3.4, -0.8, -8, ?, ., -2, 4, -5, 6.8, 0.7
#44 Cc1noc(C)c1C(=O)NCCCc1ccccc1
→ -2.5, ., -13, -24, 24%, -6, ., ., ., -0.3
#45 COC(=O)C[n+]1cccc2ccccc21
→ -94, -11, 18, 4, -7%, 0, 17, 4, -8.1, 0.4

Going on with the list:
Fields: RanGTP-Imp inh, MLL AF4-AF9 inh, T cruzi inh, Calb FLC, Vif TR-FRET, Beta apoptosis, Ecoli rRNA inh, Ecoli rRNA inh OD600, Ecoli rRNA inh RFP, A1 inh
#46 CC1CCCN(C(=O)CN2C(=O)NC(C)(c3ccc4ccccc4c3)C2=O)C1 (centres undefined)
→ ., -1.4, ., ., -8%, 2, -3, -29, 1.3, -1.5
#47 CCCCN1C=CC(=C2N=c3cccc([N+](=O)[O-])c3=N2)C=C1
→ 6.7, -1.4, -11, 23, ., 0, -3, 5, -5.7, -0.3
#48 Cc1ccc(-n2nc(C)c(NC(=O)CCl)c2C)cc1
→ 4.0, ., -23, -14, 5%, 5, ., ., ., 0.3
#49 Cn1nc(C(C)(C)C)c([N+](=O)[O-])c1C(=O)Nc1ccccc1
→ 2.0, ., 7, ?, -4%, 4, ., ., ., 1.2
#50 Cc1c(CC(=O)N[C@@H](CCCNC(N)=O)C(=O)O)c(=O)oc2cc3oc4c(c3cc12)CCCC4
→ -2.7, -16, -5, -2, ., -6, 8, 1, 0.8, -1.1
#51 CCOC(=O)c1sc(C)c2c1NC1(CCCCC1)NC2=O
→ -0.7, -7.5, 9, 1, -4%, 2, 13, 11, -0.1, -0.1
#52 CCCC1=C(C(=O)OCC)C(c2cccs2)C(C#N)=C(N)O1 (centres undefined)
→ 30*, ., -8, 5, 2%, -3, ., ., ., 0.0
#53 O=C(COC(=O)c1sc2ccccc2c1Cl)NCC1CCCCC1
→ 1.8, ., -17, -6, ., 1, ., ., ., -0.4
#54 COc1ccc(NC(=O)c2oc3ccccc3c2NC(=O)COc2ccccc2OC)c(OC)c1
→ 0.6, ., -1, 30, -7%&-6%, 9, ., ., ., -0.3
#55 CCCOc1cccc(C(=O)NCCNC(=O)c2ccco2)c1
→ 0.4, 22, -1, -1, ., ., -4, -3, -0.7, 1.3
#56 CCOC(=O)c1ccc(-n2c(-c3ccco3)nc3ccccc3c2=O)cc1
→ -2.6, ., 18, -1, -13%, -1, ., ., ., -0.4
